# 2A Renilla = FMDV 2A StopGo reporter, Renilla signal; Potency, µM (series often up to 57.5 µM), inactives show at the top dose signal change, negative = less light; 120,000 compounds, 0.32% hits; HEK cells with a luciferase reporter of 2A StopGo recoding; active means well fitted falling curve with a large enough effect; inconclusive means small, poorly fitted or top-dose-only effect; inactive means no such curve, though single readings can be large or run the other way; further: nearly all actives have a fitted effect of over 55% in size; overnight with compound
# StopGo FLuc = lowers the firefly signal of an FMDV 2A StopGo reporter. HEK cells with a luciferase reporter of 2A StopGo recoding. Potency, µM (doses to about 57.5 µM), for the others: at the top dose signal change, negative = less light. 120,000 compounds, 0.23% hits. AID 1745856; active = well fitted falling curve with a large enough effect; inconclusive = small, poorly fitted or top-dose-only effect; inactive = no such curve, though single readings can be large or run the other way; further: nearly all actives have a fitted effect of over 60% in size; overnight with compound
# An asterisk follows results filed as active; ? = inconclusive; & = joins results of further samples; [ ] = dose if it differs, or a comment. On the % scale 0 is the no-effect control and ±100 the full control effect; potency means the concentration at half of the fitted maximal effect. Some of the compounds tested; count on the stated rates, not on these rows.
# Second line of a record – 2A Renilla	StopGo FLuc
Cc1cnc2c(c1SCCN1CCOCC1)c(=O)n(C)c(=O)n2C
 : -11.2%	-3.6%
O=C(Nc1nonc1-c1ccc2c(c1)CCCC2)c1cc(=O)c2ccccc2o1
 : 11.5%	13.1%
CC(=O)Nc1cccc(NC(=O)c2nn(-c3ccc(F)c(F)c3)c3c2CCC3)c1
 : 11.9%	12.5%
CCOc1ccc(OCC)c(S(=O)(=O)N2CCN(c3cccc(C)c3C)CC2)c1
 : 163.5%[activator]	-18.9%
COc1ccccc1N1CCN(S(=O)(=O)CCNC(=O)c2cc(=O)c3ccccc3o2)CC1
 : -8.6%	-15.7%
Cc1ccc(C(=O)Nc2cc(-c3cn4cccnc4n3)ccc2C)cc1C
 : -4.0%	-1.1%
O=S(=O)(NCCc1ccc(-n2cccn2)cc1)c1ccccc1
 : 152.7%[activator]	5.8%
Cc1ccc(S(=O)(=O)c2nnn3c2nc(Nc2ccc(C(C)C)cc2)c2sccc23)cc1C
 : -10.4%	-25.7%
COc1ccc(CN(Cc2ccccc2)Cc2cc(=O)n3cc(C)sc3n2)cc1OC
 : -1.3%	-27.0%
CCC(=O)N1N=C(c2ccccc2)CC1c1ccc2nccnc2c1 (stereo not given)
 : -12.2%	7.5%
N#C/C(=C/c1cccc([N+](=O)[O-])c1)c1ccc(C(F)(F)F)cn1
 : -10.5%	0.0%
O=C(CSc1ncc(-c2cccc(Br)c2)o1)NC1CCCC1
 : -0.7%	18.6%
O=C(CNC(=O)c1ccccc1)NCCc1c[nH]c2ccccc12
 : 9.1%	0.2%
CCc1ccc(NC(=O)c2ccc(NS(=O)(=O)c3c(C)noc3C)cc2)cc1
 : 26.6%	-2.7%
CCc1ccc(-c2cc(C)no2)cc1S(=O)(=O)NCc1ccco1
 : 131.5%[activator]	-11.3%
CCCCn1c(=O)n(CCC#N)c(=O)c2c1nc(CO)n2CCC
 : -2.6%	2.1%
COc1cc(NC(=O)COc2ccc3c(C)c(C)c(=O)oc3c2)cc(OC)c1OC
 : ?	?
COC(=O)C1CN(Cc2ccc(F)cc2)CCS(=O)(=O)N1Cc1ccc(Cl)cc1 (stereo not given)
 : -1.3%	?
Cc1cccc(NC(=S)NC2CCCCC2C)c1 (stereo not given)
 : -6.6%[1.06 µM]	28.5%
NC(=O)NC(=O)CSc1ccc2ccccc2n1
 : 11.0%	74.5%[activator]
CCOc1ccccc1N(C)C(=O)c1c2c(nc3ccccc13)C(=O)N(C1CCCCC1)C2
 : 2.5%	-23.8%
CC(=O)Nc1ccc(NC(=O)c2cc(=O)c3ccccc3o2)cc1
 : -4.6%&-1.7%	42.9%&-1.2%[activator]
COc1ccc(N(C(C)C(=O)N(Cc2ccccc2)Cc2ccccc2)S(C)(=O)=O)cc1 (stereo not given)
 : 15.6%	-28.6%
Cc1cc(C)c(/C=C/c2onc(C)c2S(=O)(=O)N2CCC(C(=O)Nc3ccc(Cl)c(C(F)(F)F)c3)CC2)c(C)c1
 : -6.3%	-14.8%
O=C(CCc1cc(Cl)no1)N(CCS(=O)(=O)N1CCOCC1)Cc1ccccn1
 : 11.2%	20.0%
COc1ccc(NC(=O)Cn2cnc3sc(C)c(S(=O)(=O)N4CCN(c5ccccc5OC)CC4)c3c2=O)cc1OC
 : -0.7%	-12.5%
CSc1nn(Cc2ccc(Cl)cc2)c(N(C(C)=O)C(C)=O)c1S(=O)(=O)c1ccccc1
 : 123.8%[activator]	-11.3%
CC(c1c(F)cccc1F)n1cnc2c1c(=O)n(C)c(=O)n2C (stereo not given)
 : -5.5%	10.5%
Cn1c(=O)n(-c2ccc3c(c2)OCO3)c2nc(-c3ccc(Cl)cc3)nc(C(N)=O)c21
 : -19.3%	0.0%
Cc1cc(Cl)ccc1NC(=O)c1cc(S(=O)(=O)N2CCOCC2)cn1C
 : -8.1%	-18.7%

# The list goes on; the last 3 above are carried over.
# Second line of a record – 2A Renilla	StopGo FLuc
CC(c1c(F)cccc1F)n1cnc2c1c(=O)n(C)c(=O)n2C (stereo not given)
 : -5.5%	10.5%
Cn1c(=O)n(-c2ccc3c(c2)OCO3)c2nc(-c3ccc(Cl)cc3)nc(C(N)=O)c21
 : -19.3%	0.0%
Cc1cc(Cl)ccc1NC(=O)c1cc(S(=O)(=O)N2CCOCC2)cn1C
 : -8.1%	-18.7%
CC(=O)Nc1cccc(NC(=O)c2cccc3c(=O)c(C)c(-c4ccccc4)oc23)c1
 : 35.3%[activator]	24.3%
O=C(O)CNC(=O)c1cc(-c2ccccn2)nc2ccccc12
 : -8.9%	-3.6%
C#C[C@]1(OC(C)=O)CC[C@H]2[C@@H]3CCC4=C[C@@H](OC(C)=O)CC[C@@H]4[C@H]3CC[C@@]21C
 : 24.2%	2.5%[11.5 µM]
CCc1ccc2c(c1)NC(c1ccc(F)cc1)=NC(c1ccncc1)=N2
 : 0.5%	-2.9%
CC(C)CCNC(=S)NCc1ccco1
 : 7.7%	7.4%
COc1ccccc1CN(C)C(=O)Cn1c(=O)n(C)c2ccccc21
 : -14.9%	67.5%[activator]
COc1cccc(-c2nc(CS(=O)CC(=O)N3CCN(c4cccc(C(F)(F)F)c4)CC3)c(C)o2)c1 (stereo not given)
 : ?	?
COc1ccccc1CNc1ncnc2onc(-c3ccc(Cl)cc3)c12
 : -1.9%	-7.6%
COc1cc(NC(=O)CCCOc2cc(=O)n(C)c3ccccc23)cc(OC)c1OC
 : 30.9%[activator]	34.5%[activator]
Cc1ccc2nc(/C(C#N)=C\c3ccccc3OCc3ccccc3Cl)[nH]c2c1
 : ?	-4.7%
Cn1c(=O)[nH]c2cc(-c3noc(-c4ccc(C#N)cc4)n3)ccc21
 : 3.3%	6.7%
CCS(=O)(=O)c1ncc(Cl)c(C(=O)N(Cc2ccccc2)C2CCS(=O)(=O)C2)n1 (stereo not given)
 : 25.1µM*	?
COc1ccccc1N1CCN(C(C(=O)O)c2c[nH]c3cc(OCc4ccccc4)ccc23)CC1 (stereo not given)
 : -15.1%	9.2%
O=C(Nc1ccc(Cl)c2ncccc12)c1cnc2c(c1)c(=O)[nH]c(=O)n2C1CC1
 : -1.9%	7.9%
CN(C)CCNC(=O)C(=O)Nc1cccc2[nH]ccc12
 : -8.7%	12.4%

# 24 entries from above in another layout.
SMILES,2A Renilla,StopGo FLuc
CC(=O)Nc1ccc(NC(=O)c2cc(=O)c3ccccc3o2)cc1,-4.6%&-1.7%,42.9%&-1.2%[activator]
COc1ccc(N(C(C)C(=O)N(Cc2ccccc2)Cc2ccccc2)S(C)(=O)=O)cc1 (stereo not given),15.6%,-28.6%
Cc1cc(C)c(/C=C/c2onc(C)c2S(=O)(=O)N2CCC(C(=O)Nc3ccc(Cl)c(C(F)(F)F)c3)CC2)c(C)c1,-6.3%,-14.8%
O=C(CCc1cc(Cl)no1)N(CCS(=O)(=O)N1CCOCC1)Cc1ccccn1,11.2%,20.0%
COc1ccc(NC(=O)Cn2cnc3sc(C)c(S(=O)(=O)N4CCN(c5ccccc5OC)CC4)c3c2=O)cc1OC,-0.7%,-12.5%
CSc1nn(Cc2ccc(Cl)cc2)c(N(C(C)=O)C(C)=O)c1S(=O)(=O)c1ccccc1,123.8%[activator],-11.3%
CC(c1c(F)cccc1F)n1cnc2c1c(=O)n(C)c(=O)n2C (stereo not given),-5.5%,10.5%
Cn1c(=O)n(-c2ccc3c(c2)OCO3)c2nc(-c3ccc(Cl)cc3)nc(C(N)=O)c21,-19.3%,0.0%
Cc1cc(Cl)ccc1NC(=O)c1cc(S(=O)(=O)N2CCOCC2)cn1C,-8.1%,-18.7%
CC(=O)Nc1cccc(NC(=O)c2cccc3c(=O)c(C)c(-c4ccccc4)oc23)c1,35.3%[activator],24.3%
O=C(O)CNC(=O)c1cc(-c2ccccn2)nc2ccccc12,-8.9%,-3.6%
C#C[C@]1(OC(C)=O)CC[C@H]2[C@@H]3CCC4=C[C@@H](OC(C)=O)CC[C@@H]4[C@H]3CC[C@@]21C,24.2%,2.5%[11.5 µM]
CCc1ccc2c(c1)NC(c1ccc(F)cc1)=NC(c1ccncc1)=N2,0.5%,-2.9%
CC(C)CCNC(=S)NCc1ccco1,7.7%,7.4%
COc1ccccc1CN(C)C(=O)Cn1c(=O)n(C)c2ccccc21,-14.9%,67.5%[activator]
COc1cccc(-c2nc(CS(=O)CC(=O)N3CCN(c4cccc(C(F)(F)F)c4)CC3)c(C)o2)c1 (stereo not given),?,?
COc1ccccc1CNc1ncnc2onc(-c3ccc(Cl)cc3)c12,-1.9%,-7.6%
COc1cc(NC(=O)CCCOc2cc(=O)n(C)c3ccccc23)cc(OC)c1OC,30.9%[activator],34.5%[activator]
Cc1ccc2nc(/C(C#N)=C\c3ccccc3OCc3ccccc3Cl)[nH]c2c1,?,-4.7%
Cn1c(=O)[nH]c2cc(-c3noc(-c4ccc(C#N)cc4)n3)ccc21,3.3%,6.7%
CCS(=O)(=O)c1ncc(Cl)c(C(=O)N(Cc2ccccc2)C2CCS(=O)(=O)C2)n1 (stereo not given),25.1µM*,?
COc1ccccc1N1CCN(C(C(=O)O)c2c[nH]c3cc(OCc4ccccc4)ccc23)CC1 (stereo not given),-15.1%,9.2%
O=C(Nc1ccc(Cl)c2ncccc12)c1cnc2c(c1)c(=O)[nH]c(=O)n2C1CC1,-1.9%,7.9%
CN(C)CCNC(=O)C(=O)Nc1cccc2[nH]ccc12,-8.7%,12.4%

# (listing goes on)
O=C(CSc1ncc2c(n1)-c1ccccc1N(Cc1ccc(Cl)cc1)S2(=O)=O)c1ccccc1
  2A Renilla: 100.6%[activator]	StopGo FLuc: -3.2%

Cc1ccc2c(CC(=O)NCC34CC5CC(CC(C5)C3)C4)coc2c1
  2A Renilla: 8.3%	StopGo FLuc: -4.3%

O=C(Cc1ccc(Cl)cc1)Nc1ccc2oc(-c3ccc(F)cc3)nc2c1
  2A Renilla: 7.3%&6.1%	StopGo FLuc: 45.5%&29.0%[activator]

O=C(Nc1ccc(F)cc1)C1CC(=O)N(Cc2ccccn2)c2nc3ccccc3n21 (stereo not given)
  2A Renilla: 3.2%	StopGo FLuc: -11.5%

CCCCCOc1ccc(S(=O)(=O)c2ccc(OCCCCC)cc2)cc1
  2A Renilla: -5.0%	StopGo FLuc: -2.8%

O=C(O)/C=C/c1cc(Cl)ccc1OC(F)F
  2A Renilla: 21.2%	StopGo FLuc: 35.0%[activator]

CCOc1ccc(/C=C/c2nc(C#N)c(N(C)C)o2)cc1
  2A Renilla: 26.2%	StopGo FLuc: 160.3%[activator]

CCOc1ccc(NC(=O)C(=O)c2c(C)n(C)c3ccccc23)cc1
  2A Renilla: 41.2%[activator]	StopGo FLuc: 1.6%

O=C(Nc1nnc(C2CC2)s1)c1cc(-c2ccco2)nc2ccccc12
  2A Renilla: -5.6%	StopGo FLuc: -5.0%

CCCOC(=O)Nc1ccccc1N=C1CCC/C1=C/c1ccccc1
  2A Renilla: 16.0%	StopGo FLuc: 32.7%[activator]

N#CCC(=O)Nc1ccc(N2CCOCC2)cc1
  2A Renilla: -0.8%	StopGo FLuc: 10.1%

COc1ccc(C)cc1N1CC(O)=C(c2nc3ccccc3s2)C1=N
  2A Renilla: 120.2%[activator]	StopGo FLuc: 4.3%

COc1ccc(NC(=O)CSC2=Nc3ccccc3C3=NC(CC(=O)NCc4ccccc4OC)C(=O)N23)cc1Cl (stereo not given)
  2A Renilla: 74.6%[activator]	StopGo FLuc: 25.9%

COc1ccccc1N1CCN(S(=O)(=O)CCNC(=O)C(c2ccccc2)c2ccccc2)CC1
  2A Renilla: ?	StopGo FLuc: ?

COCCn1c(SCC(=O)Nc2cccc(C(F)(F)F)c2)nc2ccsc2c1=O
  2A Renilla: 69.8%[activator]	StopGo FLuc: -5.3%

O=C(O)C1(c2ccc(F)cc2)CCCCC1
  2A Renilla: 0.0%	StopGo FLuc: 0.0%

CCc1cccc(C)c1NC(=O)CN1C(=O)c2ccccc2Sc2ncccc21
  2A Renilla: -3.7%	StopGo FLuc: -10.5%

COC(=O)c1c(C)[nH]c(C(=O)Cn2nnc(-c3ccc(C(C)C)cc3)n2)c1C
  2A Renilla: -4.6%	StopGo FLuc: -4.5%

O=C1OCCC1NC(=S)Nc1cccc2ccccc12 (stereo not given)
  2A Renilla: -3.4%	StopGo FLuc: -7.4%
